NOMO-1 viab = STK33 inhibitor candidate reducing NOMO-1 cell viability. NOMO-1 AML viability, CellTiter-Glo luminescence, 72 h. inhibition, % (test concentration not listed). actives 7.5% (n = 37,000). AID 2330;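 active means most replicates above 80%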;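 further: wells of about 30 µL received 25 nL stock; 0% = median of vehicle wells and 100% = reference inhibitor level; the first replicate is given; inactives centre near 10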
* = called active by the depositor; & = joins results of further samples.

#1 C/C=C\C(=O)O[C@@H]1C[C@H]2O[C@@H]3C=C(C)C(=O)C[C@]3(C)[C@]1(C)[C@]21CO1
- NOMO-1 viab: 122.1*
#2 CC(CCc1ccc(O)cc1)O[C@@H]1O[C@H](CO[C@H]2OC[C@](O)(CO)[C@H]2O)[C@@H](O)[C@H](O)[C@H]1O (stereo not given in full)
- NOMO-1 viab: -1.3
#3 COc1ccccc1N1C(=O)NC(=O)C(CCc2ccncc2)(Cc2cccc3ccccc23)C1=O (stereo not given)
- NOMO-1 viab: 32.3
#4 O=C(Cn1cc(C(=O)c2ccccc2)c2ccccc21)Nc1ccc(Br)cc1
- NOMO-1 viab: 61.6
#5 C=CCN1CCc2cccc3c2[C@H]1Cc1ccc(O)c(O)c1-3
- NOMO-1 viab: 114.4*
#6 COc1ccc(CC2C(=O)OCC2Cc2ccc3c(c2)OCO3)cc1OC (stereo not given)
- NOMO-1 viab: 8.5
#7 CC1(C)C(=O)C=C[C@@]2(C)C1C[C@@H](O)[C@]1(C)C2CC[C@@]2(C)[C@H](c3ccoc3)OC(=O)[C@H]3O[C@]321 (stereo not given in full)
- NOMO-1 viab: 24.4
#8 CC(N)Cc1c[nH]c2ccc(OCc3cccs3)cc12 (stereo not given)
- NOMO-1 viab: 33.0
#9 CCOC(=O)c1c(C)n(C(C)C)c2ccc(OC(=O)c3ccccc3)cc12
- NOMO-1 viab: 5.4
#10 CCC1CN2CCC3(C(=O)Nc4cccc(O)c43)C2CC1/C(=C/OC)C(=O)OC (stereo not given)
- NOMO-1 viab: 6.0

By substructure, the entries above containing nitrogen in an aromatic ring (4)
#3 COc1ccccc1N1C(=O)NC(=O)C(CCc2ccncc2)(Cc2cccc3ccccc23)C1=O (stereo not given)
- NOMO-1 viab: 32.3
#4 O=C(Cn1cc(C(=O)c2ccccc2)c2ccccc21)Nc1ccc(Br)cc1
- NOMO-1 viab: 61.6
#8 CC(N)Cc1c[nH]c2ccc(OCc3cccs3)cc12 (stereo not given)
- NOMO-1 viab: 33.0
#9 CCOC(=O)c1c(C)n(C(C)C)c2ccc(OC(=O)c3ccccc3)cc12
- NOMO-1 viab: 5.4

Remaining list, next part.
#11 Cc1ccc(S(=O)(=O)N2CCCCC2)cc1C(=O)Oc1cccc2cccnc12
- NOMO-1 viab: 116.2*
#12 CN(C)C(=O)Oc1ccnc(SCc2c(F)cccc2Cl)n1
- NOMO-1 viab: 67.8
#13 O=C1NC(=O)C(=Cc2cn(Cc3ccccc3)c3ccccc23)C(=O)N1
- NOMO-1 viab: 125.6*
#14 Clc1ccc(C(c2ccc(Cl)cc2)C(Cl)(Cl)Cl)cc1
- NOMO-1 viab: 11.8
#15 FC(F)(F)c1cccc(N2CCNCC2)c1
- NOMO-1 viab: 20.3&-12.8
#16 COC1CC(OC2CCC3(C)C(CCC4C3CCC3(C)C(C5=CC(=O)OC5)C(OC(C)=O)CC43O)C2)OC(C)C1OC1OC(COC2OC(CO)C(O)C(O)C2O)C(O)C(O)C1O (stereo not given)
- NOMO-1 viab: 109.6*
#17 C[C@@]12C[C@@H](c3ccoc3)OC(=O)C1CC[C@]1(C)[C@H]2[C@H]2C=C[C@]1(O)C(=O)O2 (stereo not given in full)
- NOMO-1 viab: 2.6
#18 COC(=O)C12CC3CC(C(C)O)C1N(CCc1c2[nH]c2ccc(OC)cc12)C3 (stereo not given)
- NOMO-1 viab: 29.7
#19 COC(=O)[C@H]1O[C@@H]2C[C@H]3OC(n4cnc5c(N)ncnc54)[C@H](OC)[C@H]3O[C@@]2(O)[C@@H](O)[C@@H]1O (stereo not given in full)
- NOMO-1 viab: 10.1
#20 Cc1ccc(N2C(=O)NC(=O)C(CCc3ccccn3)(Cc3ccc(F)cc3)C2=O)cc1 (stereo not given)
- NOMO-1 viab: -2.1

#21 C=C(CO)C(=O)O[C@H]1C/C(C)=C\CC/C(CO)=C\[C@H]2OC(=O)C(=C)[C@H]12
- NOMO-1 viab: 122.5*
#22 O=c1c2ccccc2nc(C(F)(F)F)n1-c1ccccc1
- NOMO-1 viab: 4.2
#23 O=C1CCCC2C3CC(CN12)[C@@H]1CCCCN1C3 (stereo not given in full)
- NOMO-1 viab: -22.8
#24 O=C(c1ccccc1)N1CC2CC(C1)c1cccc(=O)n1C2 (stereo not given)
- NOMO-1 viab: 15.7
#25 Cc1cc(OCc2cc(C(=O)O)oc2C)c2c3c(c(=O)oc2c1)CCCC3
- NOMO-1 viab: 0.3
#26 Clc1ccc(C2CC3CCC2N3)cn1 (stereo not given)
- NOMO-1 viab: 11.5
#27 CCNC(=S)N1CCN(CC(=O)Nc2ccc(Cl)cc2C(=O)c2ccccc2)CC1
- NOMO-1 viab: 3.9
#28 COc1cc2c(cc1O)[C@@H]1Cc3ccc(OC)c(O)c3CN1CC2
- NOMO-1 viab: 108.1*
#29 NC1=C(C(=O)OCc2ccccc2)C2(C(=O)Nc3ccc(Br)cc32)C2=C(O1)C(=O)CCC2 (stereo not given)
- NOMO-1 viab: 45.0
#30 COc1cc2c(cc1O)C1Cc3ccc(OC)c(O)c3CN1CC2 (stereo not given)
- NOMO-1 viab: 117.1*

Part of the list above in order of SMILES length, ascending.
#26 Clc1ccc(C2CC3CCC2N3)cn1 (stereo not given)
- NOMO-1 viab: 11.5
#15 FC(F)(F)c1cccc(N2CCNCC2)c1
- NOMO-1 viab: 20.3&-12.8
#23 O=C1CCCC2C3CC(CN12)[C@@H]1CCCCN1C3 (stereo not given in full)
- NOMO-1 viab: -22.8
#22 O=c1c2ccccc2nc(C(F)(F)F)n1-c1ccccc1
- NOMO-1 viab: 4.2
#12 CN(C)C(=O)Oc1ccnc(SCc2c(F)cccc2Cl)n1
- NOMO-1 viab: 67.8
#30 COc1cc2c(cc1O)C1Cc3ccc(OC)c(O)c3CN1CC2 (stereo not given)
- NOMO-1 viab: 117.1*
#28 COc1cc2c(cc1O)[C@@H]1Cc3ccc(OC)c(O)c3CN1CC2
- NOMO-1 viab: 108.1*
#13 O=C1NC(=O)C(=Cc2cn(Cc3ccccc3)c3ccccc23)C(=O)N1
- NOMO-1 viab: 125.6*
#9 CCOC(=O)c1c(C)n(C(C)C)c2ccc(OC(=O)c3ccccc3)cc12
- NOMO-1 viab: 5.4
#11 Cc1ccc(S(=O)(=O)N2CCCCC2)cc1C(=O)Oc1cccc2cccnc12
- NOMO-1 viab: 116.2*
#27 CCNC(=S)N1CCN(CC(=O)Nc2ccc(Cl)cc2C(=O)c2ccccc2)CC1
- NOMO-1 viab: 3.9
#18 COC(=O)C12CC3CC(C(C)O)C1N(CCc1c2[nH]c2ccc(OC)cc12)C3 (stereo not given)
- NOMO-1 viab: 29.7

#20 Cc1ccc(N2C(=O)NC(=O)C(CCc3ccccn3)(Cc3ccc(F)cc3)C2=O)cc1 (stereo not given)
- NOMO-1 viab: -2.1
#29 NC1=C(C(=O)OCc2ccccc2)C2(C(=O)Nc3ccc(Br)cc32)C2=C(O1)C(=O)CCC2 (stereo not given)
- NOMO-1 viab: 45.0
#21 C=C(CO)C(=O)O[C@H]1C/C(C)=C\CC/C(CO)=C\[C@H]2OC(=O)C(=C)[C@H]12
- NOMO-1 viab: 122.5*
#17 C[C@@]12C[C@@H](c3ccoc3)OC(=O)C1CC[C@]1(C)[C@H]2[C@H]2C=C[C@]1(O)C(=O)O2 (stereo not given in full)
- NOMO-1 viab: 2.6
#19 COC(=O)[C@H]1O[C@@H]2C[C@H]3OC(n4cnc5c(N)ncnc54)[C@H](OC)[C@H]3O[C@@]2(O)[C@@H](O)[C@@H]1O (stereo not given in full)
- NOMO-1 viab: 10.1
#16 COC1CC(OC2CCC3(C)C(CCC4C3CCC3(C)C(C5=CC(=O)OC5)C(OC(C)=O)CC43O)C2)OC(C)C1OC1OC(COC2OC(CO)C(O)C(O)C2O)C(O)C(O)C1O (stereo not given)
- NOMO-1 viab: 109.6*

More records follow:
#31 CO[C@H]1[C@H](O)[C@H](O[C@H]2CC[C@]3(C)C4CC[C@]5(C)[C@H](C6=CC(=O)OC6)CC[C@]5(O)C4CC[C@@H]3C2)O[C@@H](C)[C@@H]1O[C@@H]1O[C@H](CO[C@@H]2O[C@H](CO)[C@@H](O)[C@H](O)[C@H]2O)[C@@H](O)[C@H](O)[C@H]1O (stereo not given in full)
- NOMO-1 viab: 119.4*
#32 NCC(CS(=O)(=O)O)c1ccc(Cl)cc1 (stereo not given)
- NOMO-1 viab: -5.3
#33 C[C@H]1O[C@@H](O[C@H]2CC[C@]3(CO)C4CC[C@]5(C)[C@@H](C6=CC(=O)OC6)CC[C@]5(O)[C@@H]4CC[C@H]3C2)[C@H](O)[C@H](O)[C@@H]1O[C@@H]1O[C@H](CO)[C@@H](O)[C@H](O)[C@H]1O (stereo not given in full)
- NOMO-1 viab: 118.8*
#34 CC(C)c1cc2c(cc1O)[C@@]1(C)CCCC(C)(C)[C@@H]1CC2O (stereo not given in full)
- NOMO-1 viab: 94.4*
#35 CC(=O)OC[C@]12C[C@H](O)C(C)=C[C@H]1O[C@@H]1[C@H](O)[C@@H](OC(C)=O)[C@@]2(C)[C@]12CO2
- NOMO-1 viab: 122.9*
#36 N#C[C@@H](OC1OC(COC2OCC(O)C(O)C2O)C(O)C(O)C1O)c1ccccc1 (stereo not given in full)
- NOMO-1 viab: 31.3
#37 CC(N)Cc1ccc(O)cc1 (stereo not given)
- NOMO-1 viab: -15.3
#38 COC1CC(O[C@H]2CC[C@@]3(C)C(CCC4C3CC[C@]3(C)C(C5=CC(=O)OC5)CCC43O)C2)OC(C)C1OC1OC(COC2OC(CO)C(O)C(O)C2O)C(O)C(O)C1O (stereo not given in full)
- NOMO-1 viab: 119.1*
#39 COc1cccc(CNCCc2c[nH]c3ccccc23)c1
- NOMO-1 viab: 53.7
#40 c1cncc([C@H]2CCCCN2)c1
- NOMO-1 viab: -5.5

The listing continues.
| item | Structure | NOMO-1 viab |
| --- | --- | --- |
| 41 | O=c1c2ccccc2[se]n1-c1ccccc1 | 141.3* |
| 42 | C[C@@H]1C(=O)O[C@H]2[C@H]1CC[C@@]1(C)C=CC(=O)[C@@]3(C)O[C@@]213 | 88.3* |
| 43 | COC(=O)C1=COC(C)C2CN3CCc4c([nH]c5cc(OC)ccc45)C3CC12 (stereo not given) | 26.9 |
| 44 | O=C1NC(=O)N(c2ccccc2)C(=O)/C1=C/c1ccco1 | 135.8* |
| 45 | CC1=CC(=O)C2=C(C)C[C@H](O)[C@@H]3[C@H](OC(=O)[C@H]3C)[C@@H]12 | 40.6 |
| 46 | C/C(CC(c1ccccc1)c1c(O)c2ccccc2oc1=O)=N/O (stereo not given) | -7.8 |
| 47 | CCN1C[C@]2(C)CC[C@H](O)[C@@]34C2[C@H](OC)C([C@@H]13)[C@@]1(O)C[C@H](OC)[C@H]2C[C@@H]4[C@@H]1[C@H]2O | 107.4* |
| 48 | OC[C@H]1O[C@@H](n2cnc3cc(Cl)c(Cl)cc32)C(O)[C@H]1O (stereo not given in full) | 86.9* |
| 49 | COC(=O)CC1(CC(=O)OC)C(=O)N(C)C(=O)N(C)C1=O | -9.4 |
| 50 | CCN1C[C@]2(C)CC[C@H](OC)[C@@]34C2[C@H](O)C([C@@H]13)[C@@]1(OC)C[C@H](OC)[C@H]2C[C@@H]4[C@@H]1[C@H]2O | 3.6 |
| 51 | OC[C@H]1O[C@@H](Oc2c[nH]c3ccc(Br)c(Cl)c23)[C@H](O)[C@@H](O)[C@H]1O | 41.5 |
| 52 | CCOC(=O)c1c(C)n(C2CCCCC2)c2ccc(O)cc12 | 25.4 |
| 53 | CC1=CC2OC3[C@H](O)C[C@@](C)([C@]34CO4)[C@@]2(CO)[C@H](O)C1=O (stereo not given in full) | 123.5* |
| 54 | CC1(C)C(C(=O)Nc2ccccc2C#N)C1(C)C | 17.5 |
| 55 | CN1CCCCC1c1ccc(-c2cccnc2)nc1 (stereo not given) | 5.1 |
| 56 | CCOP(=S)(OCC)Oc1nc(Cl)c(Cl)cc1Cl | -9.3 |
| 57 | CC[C@@H](C)C(=O)O[C@H]1[C@H](O)[C@H]2[C@@H](CN3C[C@@H](C)CC[C@H]3[C@@]2(C)O)C2C[C@]34O[C@@]5(O)[C@@H](OC(=O)[C@](C)(O)CC)CC[C@@]3(C)[C@@H]5[C@@H](OC(C)=O)[C@@H](OC(C)=O)[C@H]4[C@@]21O (stereo not given in full) | 14.9 |
| 58 | COc1cccc(CNCCc2c[nH]c3ccccc23)c1O | 16.3 |
| 59 | CO[C@H]1[C@@H](O)[C@@H](C)O[C@@H](OC2CCC3(C)C(CC[C@@H]4[C@@H]3CCC3(C)C(C5=CC(=O)OC5)C(O)CC43O)C2)[C@@H]1O (stereo not given in full) | 121.3* |
| 60 | O=c1c2ccccc2nc(CSc2ccccn2)n1-c1cccc(C(F)(F)F)c1 | 15.9 |

More entries
| item | Structure | NOMO-1 viab |
| --- | --- | --- |
| 61 | O=C(O)Cn1cc(C(=O)c2ccccc2)c2ccccc21 | -2.2 |
| 62 | CCOC(=O)CN1C(=O)C2(C(C(=O)OCC)=C(N)OC3=C2C(=O)CC(C)(C)C3)c2ccccc21 (stereo not given) | 2.3 |
| 63 | CCCCn1c(=O)c(C(=O)NCc2ccccn2)c(O)c2ccccc21 | 66.3 |
| 64 | Cc1ccc(C(C)C)cc1OP1(=O)COc2ccccc2OC1 | 31.8 |
| 65 | CC[C@H]1CN2CC[C@H]1C[C@H]2[C@H](O)c1ccnc2ccc(OC)cc12 | 4.4 |
| 66 | CC1CCCCCC(=O)c2c(O)cc(O)cc2CC(=O)O1 (stereo not given) | 8.6 |
| 67 | CC(C)[C@H]1C(=O)N2CCC[C@H]2[C@]2(O)O[C@](NC(=O)[C@@H]3C=C4c5cccc6[nH]cc(c56)C[C@H]4N(C)C3)(C(C)C)C(=O)N12 | 53.7 |
| 68 | CN[C@@H]1C[C@@]2(C)O[C@@H]([C@@H]1OC)n1c3ccccc3c3c4c(c5c6ccccc6n2c5c31)C(=O)NC4 | 113.8* |
| 69 | CC(=O)c1ccccc1NC(=O)C1C2CCC(O2)C1C(=O)O (stereo not given) | 35.5 |
| 70 | O=C(NC1CN2CCC1CC2)c1cccc(Cl)c1 (stereo not given) | 21.4 |

High-throughput results as filed in PubChem.

Some of the compounds tested (hit frequency here may not be typical).
